UCH37 DUB inh: inhibitors of human deubiquitinating enzyme UCH37. 330,000 compounds, 0.33% hits. inhibition, % (concentration not given with the values). purified proteasome/UCH37, Ub-AMC cleavage fluorescence. Q9Y5K5. AID 588478;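 active = mean of two replicates above 20%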;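 also: 0% = compound-free wells with enzyme and 100% = wells lacking proteasome; stock transfer was 100 nL into about 20 µL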
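Schedule: 30 min plus 25 min, room temperature / Material: human UCH37 within purified proteasomes / Technique: AMC fluorescence intensity at 355/460 nm / Buffer or medium: pH 7.4 Tris-HCl (50 mM) with ovalbumin, ATP-MgCl2, DTT / Controls: wells without proteasome as full block, compound-free enzyme plus substrate as uninhibited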
RanGTP-Imp inh: inhibitors of RanGTP-importin-beta interaction, primary screen, biochemical, FRET, CFP-Ran, YFP-importin-beta, homogeneous. cell-free CFP-Ran/YFP-importin-beta FRET ratio. inhibition, % (concentration not given with the values). 300,000 compounds, 1.1% hits. AID 2216;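 active = most replicates above 15%; inconclusive = exactly half above 15%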;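 also: 0% = DMSO wells and 100% = Ran loaded with GDP instead of GTP; wells of about 40 µL received 100 nL stock; the first replicate is given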
T cruzi repl: T. cruzi replication inhibition | T. cruzi beta-gal in NIH3T3, luminescence, 90 h | inhibition, % (no concentration beside the values) | 300,000 compounds, 1.4% hits;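 active = mean inhibition across valid replicates above about 55%, limit read from the data; inconclusive = mean below that limit but half or more replicates reach it; inactive = mean below it, under half of replicates reach it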;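 also: signal also drops with host cell toxicity which is not excluded here; 0% = plate median of DMSO wells and 100% = zero luminescence signal; higher percent means less beta-gal luminescence so fewer parasites; stock transfer was 50 nL into about 50 µL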
Beta cell apopt: blocks beta cell apoptosis. INS-1E cytokine-induced death, ATP luminescence, 48 h; percent of positive-control rescue, neutral wells zero. 300,000 compounds, 0.8% hits. protection from apoptosis, % (concentration not given with the values). AID 435005;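 active = all replicates at 75% or more, or half of them and the mean; inconclusive = half reach 75% but not the mean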;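 also: 0% = cytokine-treated negative control wells and 100% = positive control rescue; higher means more ATP so stronger rescue from cytokine killing; wells of about 40 µL received 100 nL stock; the first replicate is given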
Bfl-1 A1 inh: inhibitors of the anti-apoptotic protein A1, read as caspase activation; MEF A1-2A-BIM cells, Caspase-Glo 3/7 luminescence, 3 h; percent of clofoctol response, vehicle zero; caspase activation, % (no concentration beside the values); 330,000 compounds, 0.066% hits;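 active = over half of replicate activation scores above 10%, or exactly half above 10 with the replicate mean above 10; inconclusive = replicate mean below 10 yet half the replicates above 10; inactive = over half of replicates below 10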;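 also: wells of about 30 µL received 50 nL stock; many hits fall short of the cut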
B2AR ag: agonists of human beta-2 adrenergic receptor inducing internalization. response, % (test concentration not listed). Am2.2-beta2AR cells, FAP receptor internalization, flow cytometry; reference of the scale not given here. 340,000 compounds, 0.43% hits;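 active = response above a set limit, near 3 SD of response in nonfluorescent compounds, cut at about 42% in these data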;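 also: stock transfer was 100 nL into about 11 µL; a reference agonist was the positive control; negative values mostly stem from fluorescent compounds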
LANA-H2B inh: blocks KSHV LANA binding to histone H2A/H2B | Q9QR71 | cell-free LANA-H2A/H2B peptide, fluorescence polarization | inhibition, % (test concentration not listed) | 320,000 compounds, 0.6% hits | AID 2629; in the data active = inhibition mostly above about 10%, no sharp cut-off; inactive = mostly below about 6.7%;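 also: stock transfer was 7.5 nL into about 10 µL; 0% = median of vehicle wells and 100% = median of positive control wells; one replicate is shown; the record names a cut of 25% in any replicate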
Target sequence (Q9QR71 whole entry, looked up): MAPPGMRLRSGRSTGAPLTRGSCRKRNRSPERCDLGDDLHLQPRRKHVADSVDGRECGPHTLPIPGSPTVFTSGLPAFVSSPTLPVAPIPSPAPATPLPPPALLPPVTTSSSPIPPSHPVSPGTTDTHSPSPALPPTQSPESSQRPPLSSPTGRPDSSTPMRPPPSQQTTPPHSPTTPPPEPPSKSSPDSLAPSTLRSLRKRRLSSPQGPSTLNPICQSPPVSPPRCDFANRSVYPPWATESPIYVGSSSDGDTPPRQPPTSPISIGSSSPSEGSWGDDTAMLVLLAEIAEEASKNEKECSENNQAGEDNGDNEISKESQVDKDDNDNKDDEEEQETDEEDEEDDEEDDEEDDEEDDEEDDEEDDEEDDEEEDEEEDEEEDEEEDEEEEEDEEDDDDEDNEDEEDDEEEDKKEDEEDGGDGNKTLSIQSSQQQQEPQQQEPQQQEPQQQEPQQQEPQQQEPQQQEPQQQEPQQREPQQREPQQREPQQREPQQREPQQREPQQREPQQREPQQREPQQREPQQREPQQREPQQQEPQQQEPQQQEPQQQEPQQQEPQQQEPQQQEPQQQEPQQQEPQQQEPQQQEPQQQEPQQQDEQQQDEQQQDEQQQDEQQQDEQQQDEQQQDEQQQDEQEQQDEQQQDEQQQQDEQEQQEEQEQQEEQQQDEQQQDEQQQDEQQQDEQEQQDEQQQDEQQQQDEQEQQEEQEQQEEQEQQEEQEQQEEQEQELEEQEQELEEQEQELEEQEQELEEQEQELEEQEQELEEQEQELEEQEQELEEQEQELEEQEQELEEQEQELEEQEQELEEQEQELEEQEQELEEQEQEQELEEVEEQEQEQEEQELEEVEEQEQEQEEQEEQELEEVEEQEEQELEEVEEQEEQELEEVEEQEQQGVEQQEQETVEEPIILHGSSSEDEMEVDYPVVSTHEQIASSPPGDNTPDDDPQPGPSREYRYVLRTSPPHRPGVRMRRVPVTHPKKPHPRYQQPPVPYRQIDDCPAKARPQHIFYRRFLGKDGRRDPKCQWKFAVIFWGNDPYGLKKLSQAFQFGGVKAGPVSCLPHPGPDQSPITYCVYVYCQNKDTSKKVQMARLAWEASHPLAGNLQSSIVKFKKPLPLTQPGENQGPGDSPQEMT
Calb FLC: affects C. albicans growth with fluconazole. C. albicans CaCi-2 (fluconazole-resistant clinical isolate) + fluconazole, Alamar Blue growth, 48 h. 300,000 compounds, 0.57% hits. growth inhibition, % (concentration not given with the values);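 active = most replicates above 75%; inconclusive = exactly half above 75%; inactive = most below 75%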;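 also: all wells also contain fluconazole at 8 µg/ml as a sub-toxic cotreatment; 0% = median of DMSO wells and 100% = median of geldanamycin control wells; wells of about 8 µL received 7.5 nL stock; the first replicate is given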
* marks the source's active call; other numbers are inactive results; i = inactive; ? = inconclusive; / = no result given.

SMILES | UCH37 DUB inh | RanGTP-Imp inh | T cruzi repl | Beta cell apopt | Bfl-1 A1 inh | B2AR ag | LANA-H2B inh | Calb FLC
Cc1cc(C2C(C#N)=C(N)Oc3n[nH]c(C)c32)c(C)s1 (stereo not given) | 3.6 | 3.2 | 1 | -6 | 0.3 | 10 | 2.9 | 1
CCN(CC)S(=O)(=O)c1ccc(NC(=O)COC(=O)CN2C(=O)c3ccccc3C2=O)cc1 | 3.0 | -0.3 | -14 | -4 | 0.0 | -1 | -2.1 | -18
CCOC(=O)Cn1c2c(c(=N)c3ccccc31)CCC2 | -1.1 | -1.0 | 17 | -4 | 0.4 | 3 | -3.4 | 11
Cc1ccc(-n2c(-c3ccco3)n[nH]c2=S)cc1 | 1.1 | ? | -18 | -4 | 0.0 | -9 | 1.4 | 5
O=C(NC(=S)NCCCN1CCOCC1)c1ccc([N+](=O)[O-])cc1 | 1.1 | ? | -13 | -2 | 0.8 | -8 | 4.9 | 7
Nc1c(Cl)ncnc1NCc1cccnc1 | 1.8 | -2.6 | -10 | -7 | 0.1 | -5 | 12 | -3
CC1=CC(C)(C)N(C(=O)CNC2CCCCC2)c2cc(C)ccc21 | 7.3 | 0.4 | 14 | 1 | -0.7 | 4 | 1.3 | -25
Cc1ccc(-c2nn(C)c(=O)c3ccccc23)cc1CNC(=O)CN1CCOCC1 | 3.7 | 3.2 | 32 | -2 | -0.9 | 3 | -7.7 | 16
CCCN1C(=O)/C(=N\OCC(=O)NC23CC4CC(CC(C4)C2)C3)c2ccccc21 | / | 1.6 | 18 | -7 | 3.2 | -13 | 6.1 | -42
Cc1ccc(C)c(C(C)NC(=O)Cc2cccs2)c1 (stereo not given) | 5.1 | 5.6 | -4 | 2 | 0.0 | 6 | -16 | -1
CCOc1cc(NC(=O)c2ccccn2)c(OCC)cc1NC(=O)c1ccc(Cl)cc1 | -46 | 3.0 | -7 | 21 | 0.2 | -12 | 3.9 | 2
CCN1CCN(c2cc(C)c3cc(NC(=S)NCCCOC)ccc3n2)CC1 | -19 | -5.8 | -20 | -8 | -0.5 | -2 | 0.2 | -14
O=C1N(Cc2cccc(Cl)c2)C[C@@H]2C[C@@H](c3cccc4ncccc34)N3CCC[C@@]123 | 1.8 | 1.2 | 8 | 9 | 0.1 | 2 | 2.4 | 22
COc1ccc(NS(=O)(=O)c2cc(NC(=O)c3cccs3)ccc2N2CCOCC2)cc1 | 0.0 | 16* | 11 | 9 | 0.0 | -1 | -4.7 | -1
CCCCS(=O)Cc1ccccc1 (stereo not given) | -3.5 | -0.9 | -24 | -10 | 1.5 | 1 | -0.3 | -7
COc1ccccc1N(CN1CCCC1=O)C(=O)c1c(F)cccc1Cl | 1.1 | 2.1 | 1 | -3 | 0.5 | 4 | 1.4 | 2
Cc1cc(C)cc(N(CC(=O)NC2CCCCC2)C(=O)CNC(=O)c2ccco2)c1 | 0.4 | -1.1 | 1 | 1 | -0.5 | -3 | -9.1 | 5
Cc1ccc(SSc2cc(C)ccc2N)c(N)c1 | 2.9 | -3.7 | -9 | -4 | -0.5 | 32 | 0.7 | 5
O=C(Nc1ccc(N2CCN(C(=O)c3cccs3)CC2)cc1)c1cccc(F)c1 | 2.4 | 0.4 | -3 | 3 | -0.2 | -2 | -10 | 0
CN(C)c1nc(C=C(C#N)C#N)c(Cl)n1-c1ccc(F)cc1 | 2.9 | -0.9 | 16 | / | / | 52* | / | -8

Whole records, quoted from the list.
CCN(CC)S(=O)(=O)c1ccc(NC(=O)COC(=O)CN2C(=O)c3ccccc3C2=O)cc1 reads UCH37 DUB inh: 3.0; RanGTP-Imp inh: -0.3; T cruzi repl: -14; Beta cell apopt: -4; Bfl-1 A1 inh: 0.0; B2AR ag: -1; LANA-H2B inh: -2.1; Calb FLC: -18
Nc1c(Cl)ncnc1NCc1cccnc1 reads UCH37 DUB inh: 1.8; RanGTP-Imp inh: -2.6; T cruzi repl: -10; Beta cell apopt: -7; Bfl-1 A1 inh: 0.1; B2AR ag: -5; LANA-H2B inh: 12; Calb FLC: -3

Going on with the list:
SMILES | UCH37 DUB inh | RanGTP-Imp inh | T cruzi repl | Beta cell apopt | Bfl-1 A1 inh | B2AR ag | LANA-H2B inh | Calb FLC
CCN(CC)c1ccc(NC(=O)c2ccco2)c(C)c1 | 2.5 | -4.2 | -1 | -3 | 0.5 | 3 | -1.4 | 6
Cc1ccc(-c2cc(C(=O)Nc3c(C#N)cnn3C)no2)cc1 | 4.2 | 0.5 | 13 | 6 | -0.9 | -1 | -1.6 | -30
CCc1nc2c(n1O)CCc1nonc1-2 | 4.2 | 6.4 | 3 | 0 | -0.1 | 3 | 3.2 | -20
CCOc1cc(/C=C2/C(=N)N3C(=NC2=O)SN=C3S(=O)(=O)C(C)C)ccc1OC(=O)c1ccco1 | 12 | 4.7 | -14 | 2 | 1.1 | 8 | -0.1 | 13
C=CCNc1nnc(Cc2ccc(C(C)C)cc2)c(=O)[nH]1 | / | 0.2 | -1 | 1 | -2.4 | -12 | 2.2 | 3
CCC(c1nnnn1Cc1ccco1)N1CCN(C(=O)c2ccco2)CC1 (stereo not given) | 0.9 | ? | -5 | -3 | 0.7 | -2 | -1.7 | 3
CCOc1ccccc1N1CCN(Cc2cccc(OC)c2O)CC1 | 4.3 | -4.9 | -19 | -3 | -0.4 | 1 | -0.5 | -2
NS(=O)(=O)c1ccc(CCNc2ccccc2[N+](=O)[O-])cc1 | 5.6 | -3.6 | -2 | -1 | -2.7 | 8 | 7.1 | -4
CN(C(=O)c1ccc2c(=O)n3c(nc2c1)CCCCC3)c1ccccc1F | 2.0 | -3.8 | 6 | -2 | 1.2 | 1 | 6.6 | 13
CC(C)(C)N1CC(C(=O)Nc2ccc(S(=O)(=O)N3CCCCC3)cc2)CC1=O (stereo not given) | 1.0 | 1.0 | -4 | / | 2.3 | -8 | -1.2 | 4
Cc1ccc(NC(=O)COc2coc(CN3CCN(c4ccccc4)CC3)cc2=O)cc1 | 3.0 | 4.6 | 10 | / | 0.5 | 3 | -3.9 | 5
COc1ccccc1CNC(=O)C1CCC1 | 5.3 | -0.9 | -17 | -6 | 0.9 | 8 | -2.6 | -6
COc1ccc(NC(=O)c2ccco2)cc1NC(=O)c1cccc(F)c1 | 5.1 | 1.2 | -2 | / | / | -6 | / | 14
Cc1ccc2nc(-c3ccc(NC(=S)NC4CC(C)(C)NC(C)(C)C4)cc3)sc2c1 | -34 | 5.7 | 14 | 0 | 0.3 | 13 | 1.5 | 74*
O=C(COc1coc(CN2CCCc3ccccc32)cc1=O)Nc1ccc([N+](=O)[O-])cc1 | 5.1 | -2.4 | 1 | -1 | 0.4 | 0 | / | -8
Cc1cc(N2CCCC2)c(C)cc1C=O | 12 | -0.6 | 4 | -14 | 0.2 | -8 | 3.3 | -9
CCn1ccc(C(=O)Nc2ccc3c(c2)CCC3)n1 | 4.9 | -2.7 | -2 | 0 | -3.7 | 4 | -5.9 | 9
Cc1c(OC(C(=O)O)c2ccccc2)ccc2c3c(c(=O)oc12)CCC3 (stereo not given) | -80 | -0.8 | 2 | / | / | 5 | / | -6
O=C(c1ccccc1)N1CCCCC(Sc2nnc3ccccn23)C1=O (stereo not given) | 3.1 | -0.5 | -6 | 3 | 0.5 | -3 | 3.8 | 5
COC(=O)c1cn(NC(=O)c2ccc(OC)c([N+](=O)[O-])c2)c(=O)c2ccccc12 | 2.5 | 1.2 | 4 | -8 | 0.3 | -5 | 0.6 | 23
CC(C)(C)NC(=O)NC(=O)COC(=O)COc1ccc(Cl)cc1Cl | 2.6 | -2.5 | -25 | 1 | 0.1 | 0 | -2.8 | -7
CCc1c(C)nc2ncnn2c1N1CCC(C(=O)NCc2cccc(OC)c2)CC1 | 3.7 | 7.9 | -14 | / | / | -3 | / | -3
CCc1nnc(NS(=O)(=O)c2ccc(Nc3ccc([N+](=O)[O-])c4nonc34)cc2)s1 | 35* | -6.7 | 17 | 9 | 1.0 | 8 | -8.2 | 25
O=C(Nc1cnc2sccn2c1=O)c1ccccc1Cl | 6.4 | ? | 8 | 0 | -4.0 | -19 | 5.9 | -9
CCOc1ccc(NC(=O)CN(C)C(=O)c2cc(C)on2)cc1OCC | 5.1 | 2.1 | -9 | / | 0.8 | 5 | -0.5 | 1
NC(=O)CC(NC(=O)Cc1ccc(Br)cc1)c1ccc(NCCc2ccccc2F)c([N+](=O)[O-])c1 (stereo not given) | -0.7 | -4.9 | 6 | -7 | -0.1 | -4 | 1.2 | 3
O=S(=O)(CCc1nc2ccccc2o1)c1ccc(Cl)cc1 | 1.3 | 3.5 | -2 | -3 | -0.3 | -3 | -3.2 | 12
COc1ccc(C2C(C(=O)NCc3ccccn3)c3cc(OC)c(OC)cc3C(=O)N2C)cc1 (stereo not given) | 2.0 | / | / | 0 | -0.3 | -6 | 1.9 | /
Cc1cccc(NS(=O)(=O)c2ccc3c(c2)NC(=O)CC(=O)N3)c1 | -2.0 | -11 | -22 | -3 | 0.4 | -2 | -4.2 | -5
Cc1[nH]c2ccccc2c1/C=N\NC(=O)CNc1ccc2c(c1)OCO2 | / | 0.7 | 5 | -5 | 0.1 | 11 | 5.9 | -18
O=C(CSc1ncc(-c2ccccc2)n1C1CCCC1)N1CCc2ccccc21 | 0.6 | 0.1 | 64* | -3 | 0.3 | -16 | 1.5 | -23
O=C(CN1CCN(C2CCCCC2)CC1)c1c[nH]c2ccccc12 | 1.5 | -4.8 | 9 | -6 | 0.4 | -1 | 8.4 | 0
COc1ccccc1-c1coc2c(CN3CCN(C)CC3)c(O)ccc2c1=O | i | 2.7 | 6 | 1 | -0.5 | 0 | -2.0 | -10
CCOC(=O)C(=O)N(CC)C1CCS(=O)(=O)C1 (stereo not given) | 2.2 | 1.2 | / | -4 | 2.2 | -4 | -2.7 | -9
COc1ccc(NC(=O)CSc2nnc(C)n2C2CCCCC2)cc1 | -0.2 | 8.2 | -2 | -11 | -0.1 | -12 | -4.7 | -4
Cc1ccccc1NC(=O)C1CCCN(C(=O)Nc2ccc(F)cc2)C1 (stereo not given) | 2.2 | -2.9 | 7 | -3 | 0.4 | -9 | -2.1 | -4
COc1ccc(/C=C/C(=O)OCC(=O)NC2CCCC(C)C2C)cc1 (stereo not given) | 1.5 | / | / | 1 | -0.6 | -3 | -2.9 | /
COc1cc2[nH]c(=S)n(CCN3CCOCC3)c(=O)c2cc1OC | 5.8 | -2.0 | -7 | -4 | -0.2 | -15 | 1.3 | -12
COCCOc1ccc(C(F)(F)F)cc1NC(=O)COC(=O)Cc1c[nH]c2ccccc12 | 0.3 | / | / | 0 | 0.0 | 10 | -8.5 | /
O=C(c1ccc(Cl)c(Cl)c1)N1CCN(Cc2ccc3c(c2)OCO3)CC1 | 4.3 | -2.2 | 14 | 2 | 2.0 | -4 | 0.3 | -32
O=C(Cc1ccc(F)cc1)NCC1CCCO1 (stereo not given) | -1.7 | ? | -16 | -3 | -0.3 | 5 | 1.0 | 9
O=C(NC12CC3CC(CC(C3)C1)C2)C1CC(=O)N(c2ccc(Br)cc2)C1 (stereo not given) | 2.5 | 2.4 | 12 | -1 | 0.4 | -10 | -2.3 | -14
Cc1ccc(C)c(CSC2=NCCN2S(=O)(=O)c2ccccc2)c1 | 5.3 | -1.0 | 10 | 6 | -0.1 | 0 | -4.1 | -6
